Beta apoptosis: inhibitors of cytokine-induced beta cell apoptosis, primary screen, luminescence. INS-1E cytokine-induced death, ATP luminescence, 48 h; percent of positive-control rescue, neutral wells zero. protection from apoptosis, % (no concentration beside the values). hit rate 0.8% among 300,000. AID 435005, 2010;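 active means all replicates at 75% or more, or half of them and the mean; inconclusive means half reach 75% but not the mean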;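 further: 0% = cytokine-treated negative control wells and 100% = positive control rescue; higher means more ATP so stronger rescue from cytokine killing; wells of about 40 µL received 100 nL stock; the first replicate is given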
LANA-H2B inh: blockers of LANA interaction with H2A/H2B – biochemical, FP readout, HTS, primary screen | AID 2629, 2010 | Protein LANA1 (Human herpesvirus 8 type P (isolate GK18)), Q9QR71 | hit rate 0.6% among 320,000 | inhibition, % (concentration not given with the values) | cell-free LANA-H2A/H2B peptide, fluorescence polarization; in the data active means inhibition mostly above about 10%, no sharp cut-off; inactive means mostly below about 6.7%;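 further: stock transfer was 7.5 nL into about 10 µL; 0% = median of vehicle wells and 100% = median of positive control wells; one replicate is shown; the record names a cut of 25% in any replicate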
Target sequence (Q9QR71 whole entry, looked up): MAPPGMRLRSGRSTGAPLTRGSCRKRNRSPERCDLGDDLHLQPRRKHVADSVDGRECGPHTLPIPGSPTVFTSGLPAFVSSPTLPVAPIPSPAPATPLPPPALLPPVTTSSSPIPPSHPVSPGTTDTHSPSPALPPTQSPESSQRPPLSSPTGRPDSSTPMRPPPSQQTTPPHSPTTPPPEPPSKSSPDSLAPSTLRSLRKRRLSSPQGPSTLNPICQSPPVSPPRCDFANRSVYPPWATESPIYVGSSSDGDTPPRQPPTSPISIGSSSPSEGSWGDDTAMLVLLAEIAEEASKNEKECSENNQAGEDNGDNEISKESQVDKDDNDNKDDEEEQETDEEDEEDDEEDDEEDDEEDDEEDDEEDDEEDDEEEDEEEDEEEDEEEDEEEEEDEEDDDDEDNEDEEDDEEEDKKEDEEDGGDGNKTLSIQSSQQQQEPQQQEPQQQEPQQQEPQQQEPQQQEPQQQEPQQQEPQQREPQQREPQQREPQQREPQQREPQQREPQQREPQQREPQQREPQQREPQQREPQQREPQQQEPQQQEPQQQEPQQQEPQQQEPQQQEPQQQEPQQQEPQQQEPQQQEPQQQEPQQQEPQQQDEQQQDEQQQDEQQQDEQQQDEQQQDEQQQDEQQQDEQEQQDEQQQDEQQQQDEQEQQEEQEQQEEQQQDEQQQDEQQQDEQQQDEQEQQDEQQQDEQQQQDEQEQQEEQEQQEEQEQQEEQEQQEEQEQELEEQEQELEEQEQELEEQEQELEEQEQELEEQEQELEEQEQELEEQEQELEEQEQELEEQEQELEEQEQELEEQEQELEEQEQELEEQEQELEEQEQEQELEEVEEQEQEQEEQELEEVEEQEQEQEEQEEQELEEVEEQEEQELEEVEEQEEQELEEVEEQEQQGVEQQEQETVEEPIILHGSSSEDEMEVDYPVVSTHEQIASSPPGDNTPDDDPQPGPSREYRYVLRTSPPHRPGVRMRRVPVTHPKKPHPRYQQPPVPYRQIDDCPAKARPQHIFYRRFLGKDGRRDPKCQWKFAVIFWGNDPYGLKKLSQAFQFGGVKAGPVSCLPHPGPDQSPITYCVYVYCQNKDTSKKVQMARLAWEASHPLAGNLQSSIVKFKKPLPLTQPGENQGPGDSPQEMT
Calb FLC: C. albicans growth inhibition with fluconazole, primary screen, CaCi-2 strain, Alamar Blue fluorescence; hit rate 0.57% among 300,000; growth inhibition, % (no concentration beside the values); C. albicans CaCi-2 (fluconazole-resistant clinical isolate) + fluconazole, 48 h;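 active means most replicates above 75%; inconclusive means exactly half above 75%; inactive means most below 75%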;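 further: all wells also contain fluconazole at 8 µg/ml as a sub-toxic cotreatment; 0% = median of DMSO wells and 100% = median of geldanamycin control wells; wells of about 8 µL received 7.5 nL stock; the first replicate is given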
RanGTP-Imp inh: inhibitors of RanGTP-importin-beta interaction, primary screen, biochemical, FRET, CFP-Ran, YFP-importin-beta, homogeneous; inhibition, % (concentration not given with the values); AID 2216, 2009; cell-free CFP-Ran/YFP-importin-beta FRET ratio; hit rate 1.1% among 300,000;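 active means most replicates above 15%; inconclusive means exactly half above 15%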;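 further: 0% = DMSO wells and 100% = Ran loaded with GDP instead of GTP; wells of about 40 µL received 100 nL stock; the first replicate is given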
MLL AF4-AF9 inh: inhibitors of AF4 peptide binding to AF9, primary screen, biochemical, AlphaScreen, biotin-AF4 peptide, FLAG-AF9, single point | inhibition, % at 10 µM | hit rate 0.47% among 350,000 | Protein AF-9 (Homo sapiens), P42568;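 active means every replicate reaching a set inhibition limit, whatever the replicate mean, cut at about 25% in these data; inconclusive means mean inhibition reaches that limit but some replicates miss it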;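 further: 0% = plate neutral control median and 100% = total signal loss; the record names both 10 and 1 µM as test concentration; the first replicate is given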
A1 inh: caspase 3/7 activation in MEF A1-2A-BIM cells, primary screen, A1 inhibitor project, cell-based, luminescence, HTS; Caspase-Glo 3/7 luminescence, 3 h; percent of clofoctol response, vehicle zero; caspase activation, % (test concentration not listed); hit rate 0.066% among 330,000;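 active means over half of replicate activation scores above 10%, or exactly half above 10 with the replicate mean above 10; inconclusive means replicate mean below 10 yet half the replicates above 10; inactive means over half of replicates below 10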;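 further: wells of about 30 µL received 50 nL stock; many hits fall short of the cut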
T cruzi inh: inhibitors of intracellular T. cruzi growth, primary screen, luminescence, NIH3T3 host cells; hit rate 1.4% among 300,000; inhibition, % (test concentration not listed); T. cruzi beta-gal in NIH3T3, 90 h;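 active means mean inhibition across valid replicates above about 55%, limit read from the data; inconclusive means mean below that limit but half or more replicates reach it; inactive means mean below it, under half of replicates reach it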;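 further: signal also drops with host cell toxicity which is not excluded here; 0% = plate median of DMSO wells and 100% = zero luminescence signal; higher percent means less beta-gal luminescence so fewer parasites; stock transfer was 50 nL into about 50 µL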
Vif TR-FRET: inhibitors of Vif binding to APOBEC3G peptide, primary screen, biochemical, TR-FRET, GST-Vif 1-94, biotin-A3G peptide, dose response retest (AID 1117319); Virion infectivity factor (Human immunodeficiency virus type 1 group M subtype B (isolate …; TR-FRET GST-Vif / biotin-A3G peptide binding; higher % means a stronger effect; test concentration not given here; strong numbers were not always called active; one-dose inhibition, %; IC50 in µM for titrated hits; hit rate 0.57% among 260,000;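 active means above the screen mean plus three standard deviations and confirmed in dose response; inconclusive means results disagree or hit not tested in dose response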;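 further: Vif residues 1-94 fused to GST binding biotinylated APOBEC3G peptide 110-148; 0% = full assay without inhibitor and 100% = GST in place of GST-Vif; retest series ran down from 100 µM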
* marks the source's active call; other numbers are inactive results; ? = inconclusive; . = not tested or not shown.

SMILES	Beta apoptosis	LANA-H2B inh	Calb FLC	RanGTP-Imp inh	MLL AF4-AF9 inh	A1 inh	T cruzi inh	Vif TR-FRET
COCCN1C(=O)c2oc3ccccc3c(=O)c2C1c1cccc(O)c1 (stereo not drawn)	7	1.3	6	0.8	-11	-0.8	-1	-4%
COc1ccc(NC(=S)Nc2ccccc2F)c(OC)c1	3	0.9	1	-0.7	.	0.1	-6	2%
CC1(C)CC2CC(C)(CN2/C=C2/CCCCC2=O)C1 (stereo not drawn)	-4	-1.2	-2	-0.5	32*	1.3	13	-7%
CCCCn1c(SCC(N)=O)nc2ccc(N3CCOCC3)cc2c1=O	-2	-0.8	7	0.9	.	-1.2	-7	20%
CC(C)CCn1c(S(=O)(=O)O)nc2ccccc21	-4	-2.1	-4	2.7	.	0.6	-14	4%
COc1c(S(=O)(=O)N2CCN(c3ccc(F)cc3)CC2)ccc(Cl)c1Cl	-8	5.9	1	0.2	.	0.2	31	-4%
COc1ccc(CCn2c(C(C)C)nc3c(c(=O)c4ccccc4n3C)c2=O)cc1	23	-3.4	.	.	.	-0.7	30	-139%
CC(C)(C)NC(=O)C(OC(=O)c1ccco1)c1ccc(Cl)cc1 (stereo not drawn)	-4	2.3	-31	-4.3	-11	0.4	-2	.
NC(=O)C1CCN(CC(=O)Nc2ccc3c(c2)OCCO3)CC1	1	2.4	.	.	-1.1	-0.4	.	.
CCOc1cc(CNCCO)c(Cl)cc1OCC(=O)NCCc1ccccc1	-5	2.8	1	?	.	0.7	-4	-1%
CC(C)(C)c1cc(CCC(=O)NNC(=O)c2ccco2)cc(C(C)(C)C)c1O	0	1.7	1	-1.9	1.4	0.5	9	7%
S=c1[nH]nc(NCCc2ccccc2)s1	-5	-3.0	1	-0.7	-5.5	0.8	0	-6%
O=c1c(Cc2c(F)cccc2Cl)c(O)ccn1CCc1ccccn1	2	-2.6	-1	0.9	-1.6	0.1	1	-2%
CCCNC(=O)Nc1ccc(C(F)(F)F)cc1	-2	-7.3	-1	3.7	-0.2	0.4	6	.
Cc1ccc(CN2C(=NC(=O)CCC(=O)O)SC3CS(=O)(=O)CC32)cc1 (stereo not drawn)	-5	0.3	-18	-1.5	-0.7	-1.4	-7	-13%
O=C(CCN1C(=O)C2C3C=CC(C3)C2C1=O)Nc1ccc2ncccc2c1 (stereo not drawn)	-7	3.2	2	1.3	.	-0.4	9	3%
COc1cc2c(C(=O)O)c(C)n(C)c2c2ccccc12	.	-0.6	-9	-0.3	-6.9	0.1	-15	-9%
COC(=O)Cc1n[nH]c(=O)c2ccccc12	0	0.0	-4	3.0	-5.2	-0.5	-10	-1%
COc1ccc(C(O)C(CC(=O)NCCCOC(C)C)C(=O)NCCCOC(C)C)cc1OC (stereo not drawn)	-11	4.8	6	-1.3	-2.3	0.4	-14	.
O=C(NCCN1CCOCC1)c1ccc2c(c1)N(Cc1c(F)cccc1Cl)C(=O)c1ccccc1S2	3	-0.5	-18	7.8	4.9	-0.1	0	.
COC(=O)c1ccc2c(=O)[nH]c(CSc3nnc(C(F)(F)F)n3C)nc2c1	.	1.9	-4	3.5	-1.5	0.3	24	.
CSCC(=O)N1CCC(n2nccc2NC(=O)CCc2ccccc2)CC1	-4	3.3	-4	-3.8	-18	0.2	-2	.
Cc1cc([N+](=O)[O-])ccc1NCc1ccc2ccccc2c1	-1	-1.3	1	-2.4	3.2	-0.1	19	-2%
CCCCN(C(=O)c1[nH]c(C)c(C(=O)OCC)c1C)c1c(N)n(CCCC)c(=O)[nH]c1=O	-1	-3.7	.	1.5	?	0.9	-6	-4%
CCCCn1cnc(C(=O)OCC)c1N	-12	-4.8	-12	1.4	.	-0.7	3	20%
SMILES	Beta apoptosis	LANA-H2B inh	Calb FLC	RanGTP-Imp inh	MLL AF4-AF9 inh	A1 inh	T cruzi inh	Vif TR-FRET
Cc1cc(Nc2ccc(C(C)C)cc2)n2ncnc2n1	-5	4.5	3	-1.5	-2.8	0.2	-14	6%
CN(C(=O)CCN1C(=O)/C(=C/c2ccccc2)SC1=S)C1CCS(=O)(=O)C1 (stereo not drawn)	7	-0.5	-4	8.4	1.8	1.0	-3	.
CCC(Sc1nccn1C)C(=O)Nc1cccc2ccccc12 (stereo not drawn)	-2	1.0	-2	4.6	.	0.6	-13	16%
COc1ccc(N(CC(=O)N/N=C/c2ccco2)S(=O)(=O)c2ccccc2)cc1	1	4.9	-2	-0.8	.	-0.1	4	6%
CC(C)N1CCc2c(sc(NC(=O)c3ccc(S(=O)(=O)N4CCOCC4)cc3)c2C(N)=O)C1	-7	-4.4	2	49*	-2.8	-0.3	11	-2%
CCOc1ccc(NC(=S)N2CCN(S(=O)(=O)c3ccc(C)cc3)CC2)cc1	0	-0.9	0	2.3	1.0	0.3	7	0%
Cn1nc(C(F)(F)F)c(C(=O)Nc2ccc(F)cc2F)c1Sc1cccc(Cl)c1	2	0.1	0	-6.3	.	1.2	29	5%
Cn1c(N)c(C(=O)COC(=O)CCC2CCCC2)c(=O)n(C)c1=O	1	1.3	-4	7.9	1.0	0.4	2	2%
S=C(NCCCCc1ccccc1)NCc1ccccc1	-7	2.1	-31	-0.7	-1.3	0.6	-13	2%
COCCCNC(=S)NNC(=O)c1ccccn1	19	-5.4	-2	0.3	-2.4	0.6	-9	.
COC(=O)c1ccc(NC(=O)CSc2ccccn2)cc1	6	2.2	-19	-0.9	.	0.3	-3	-1%
CC(C)C[C@H](NC(=O)[C@H](Cc1ccccc1)n1c(=O)[nH]c2ccccc2c1=O)C(=O)N1CCC[C@@H]1C(=O)O	.	2.5	-4	-0.5	-2.0	-0.9	-8	.
CC1CN(S(=O)(=O)c2cccc(C(=O)Nc3ccccc3N3CCCCC3)c2)CC(C)O1 (stereo not drawn)	4	-1.2	-1	.	6.7	1.9	24	4%
COc1cc(/C=C(/C(=O)c2cccs2)c2nc3ccccc3[nH]2)cc(OC)c1O	23	7.7	49	?	.	-0.7	52	24%
CC(=O)c1ccc(NC(=S)NC(=O)Cc2ccc(Cl)cc2)cc1	.	2.7	7	2.3	-0.9	0.9	-6	-20%
CN1CCN(NC(=O)c2cccc3ccccc23)CC1	-4	-4.6	3	1.1	5.2	-1.2	8	.
Cc1ccc(CNCc2cccnc2)s1	-2	2.6	3	1.9	0.6	-0.3	7	29%
Cc1onc(-c2ccccc2)c1C(=O)N1CCCc2ccccc21	-16	0.1	15	1.4	.	-0.2	-5	73%
CCN(CC)S(=O)(=O)N1CCC(C(=O)NC2CCCC2)CC1	-2	-4.7	8	-0.5	.	1.1	-16	-3%
CC(Oc1ccc2oc3ccccc3c2c1)C(=O)NC12CC3CC(CC(C3)C1)C2 (stereo not drawn)	4	3.1	9	4.8	-6.4	0.1	18	.
COc1ccc(-c2csc(C3=C(O)CN(C(C)C)C3=N)n2)cc1OC	3	2.0	3	4.3	-1.5	2.1	-8	-17%
CCOc1ccc(NC(=O)c2ccc(-n3cccn3)nc2)cc1	1	-3.6	25	?	0.0	-0.6	-7	31%
Cc1ccc(NC(=O)NNC(=O)c2cccs2)cc1	-3	6.0	1	-1.6	.	1.0	-16	.
Cc1ccc(C(C(=O)NC(C)(C)C)N(Cc2cccs2)C(=O)c2csnn2)cc1 (stereo not drawn)	5	-2.0	6	?	.	0.4	-2	-10%
CN1C(=O)C(C)(C)c2cc(S(=O)(=O)NCC3CCC(C(=O)NC4CCCCC4)CC3)ccc21 (stereo not drawn)	6	3.2	-2	-3.5	2.3	0.6	0	.

Quoted at random: 4 compounds from above
SMILES	Beta apoptosis	LANA-H2B inh	Calb FLC	RanGTP-Imp inh	MLL AF4-AF9 inh	A1 inh	T cruzi inh	Vif TR-FRET
COC(=O)c1ccc(NC(=O)CSc2ccccn2)cc1	6	2.2	-19	-0.9	.	0.3	-3	-1%
CN(C(=O)CCN1C(=O)/C(=C/c2ccccc2)SC1=S)C1CCS(=O)(=O)C1 (stereo not drawn)	7	-0.5	-4	8.4	1.8	1.0	-3	.
Cc1ccc(C(C(=O)NC(C)(C)C)N(Cc2cccs2)C(=O)c2csnn2)cc1 (stereo not drawn)	5	-2.0	6	?	.	0.4	-2	-10%
COc1cc(/C=C(/C(=O)c2cccs2)c2nc3ccccc3[nH]2)cc(OC)c1O	23	7.7	49	?	.	-0.7	52	24%

(listing goes on)
SMILES	Beta apoptosis	LANA-H2B inh	Calb FLC	RanGTP-Imp inh	MLL AF4-AF9 inh	A1 inh	T cruzi inh	Vif TR-FRET
CCCOc1ccc(N2C(=O)CC(N(CCc3ccc(OC)c(OC)c3)C(=O)c3ccccc3)C2=O)cc1 (stereo not drawn)	8	1.2	-4	5.7	2.2	-0.3	8	5%
COCCNC(C(=O)Nc1ccc(C)cc1[N+](=O)[O-])c1ccccc1 (stereo not drawn)	-3	6.3	3	1.8	9.2	-1.5	-4	4%
O=C(Nc1ccccc1F)Nc1ccc([N+](=O)[O-])cc1Cl	48	7.3	-11	-1.8	-0.6	-1.2	16	-5%
COc1ccc(CNC(=O)Nc2ccc(OC)cc2)cc1	3	7.6	?	3.4	.	-1.6	-19	6%
O=C(CCNC(=O)C1CCN(S(=O)(=O)c2ccccc2)CC1)NCc1ccc(Cl)c(Cl)c1	.	0.6	-1	-0.2	-1.8	0.2	6	.
O=C(NCc1ccccn1)c1cc(-c2ccc(Cl)cc2)oc1C(F)(F)F	-3	16	-2	-0.5	-0.5	-0.2	5	1%
COCCNC(=O)c1ccccc1-c1ccccc1C(=O)O	-3	-0.4	-9	2.9	.	-0.8	-1	0%
Cc1ccc2nc(NC(=O)c3ccc(-c4nc5ccccc5s4)s3)sc2c1	15	5.4	.	.	9.4	-0.7	.	?
COC1CCCN(C(=O)c2ccc(OC3CCN(S(=O)(=O)N(C)C)CC3)cc2)C1 (stereo not drawn)	8	4.2	-11	8.7	-0.8	0.5	-6	.
CC(=O)c1c(C)[nH]c(C(=O)OCC(=O)Nc2cc(S(=O)(=O)N3CCCCC3)ccc2C)c1C	1	1.2	2	-1.1	.	-0.3	6	0%
NS(=O)(=O)c1ccc(NC(=O)c2cccc3ccccc23)cc1	5	0.2	-8	-1.8	-0.3	-1.2	-2	.
CCCOc1ccccc1C1NC(=O)NC(C)=C1C(=O)OCc1ccccc1 (stereo not drawn)	-4	-1.8	9	-2.4	.	-0.1	21	-10%
COc1ccc(NC(=O)c2sc(-c3ccccc3)nc2C)c(OC)c1	5	-0.3	13	0.2	-5.9	0.9	-2	3%
CCc1noc(C)c1C(=O)N1CCCC(C(=O)c2cc(F)ccc2OC)C1 (stereo not drawn)	-11	8.6	?	5.5	-1.6	0.1	55*	3%

Compound activity deposited in PubChem BioAssay by several laboratories.

Hits appear at their usual frequency. Share with any hit: about 4.3%.
